# Bioassay records (PubChem)
# ALR inh: inhibitors of human ALR sulfhydryl oxidase, primary screen, biochemical, H2O2 detection, HRP-luminol luminescence, single point. FAD-linked sulfhydryl oxidase ALR (Homo sapiens), P55789. purified ALR, DTT oxidation. inhibition, % (no concentration beside the values). 290,000 compounds, 3.8% hits. AID 485317, 2010;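 active = mean and each replicate at 75% or more; inconclusive = only one of the two met; inactive = neither met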;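 note: stock transfer was 7.5 nL into about 7.5 µL; 0% = neutral wells and 100% = wells with inactivated enzyme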
# Target sequence (P55789 whole entry, looked up): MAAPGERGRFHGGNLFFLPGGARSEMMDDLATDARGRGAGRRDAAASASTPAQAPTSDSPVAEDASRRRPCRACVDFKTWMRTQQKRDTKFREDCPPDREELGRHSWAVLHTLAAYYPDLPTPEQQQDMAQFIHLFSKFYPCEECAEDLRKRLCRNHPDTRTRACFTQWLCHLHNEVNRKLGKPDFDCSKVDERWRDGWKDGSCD
# rRNA inh HTS: reduced GFP signal of wild-type E. coli, primary screen, bacterial rRNA inhibitor project, GFP/RFP fluorescence, OD600, single point; 350,000 compounds, 1.6% hits; AID 720706, 2013; E. coli WT GFP vs humanized-ribosome RFP mutants, 24 h; active compounds read low; DMSO median 0, no signal -100; GFP signal change (wild-type ribosome), % (concentration not given with the values);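 active = significant combined selectivity score with lowered wild-type GFP, culture density cut under 30%, mutant RFP and density less affected; inactive = any of these conditions unmet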; note: one replicate is shown; some compounds called inactive have numbers as strong as hits
# T cruzi inh: inhibitors of intracellular T. cruzi growth, primary screen, luminescence, NIH3T3 host cells; inhibition, % (test concentration not listed); AID 1885, 2009; T. cruzi beta-gal in NIH3T3, 90 h; 300,000 compounds, 1.4% hits;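 active = mean inhibition across valid replicates above about 55%, limit read from the data; inconclusive = mean below that limit but half or more replicates reach it; inactive = mean below it, under half of replicates reach it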;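 note: signal also drops with host cell toxicity which is not excluded here; 0% = plate median of DMSO wells and 100% = zero luminescence signal; higher percent means less beta-gal luminescence so fewer parasites; stock transfer was 50 nL into about 50 µL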
# Beta apoptosis: inhibitors of cytokine-induced beta cell apoptosis, primary screen, luminescence; INS-1E cytokine-induced death, ATP luminescence, 48 h; percent of positive-control rescue, neutral wells zero; protection from apoptosis, % (no concentration beside the values); 300,000 compounds, 0.8% hits;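 active = all replicates at 75% or more, or half of them and the mean; inconclusive = half reach 75% but not the mean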;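 note: 0% = cytokine-treated negative control wells and 100% = positive control rescue; higher means more ATP so stronger rescue from cytokine killing; wells of about 40 µL received 100 nL stock; the first replicate is given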
# Beta2AR agonist: beta2AR agonists driving receptor internalization, primary screen, cell-based, FAP fluorogen, flow cytometry; response, % (concentration not given with the values); 340,000 compounds, 0.43% hits; Am2.2-beta2AR cells; reference of the scale not given here; Beta-2 adrenergic receptor (Homo sapiens), P07550;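 active = response above a set limit, near 3 SD of response in nonfluorescent compounds, cut at about 42% in these data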;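 note: stock transfer was 100 nL into about 11 µL; a reference agonist was the positive control; negative values mostly stem from fluorescent compounds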
# Target sequence (P07550 whole entry, looked up): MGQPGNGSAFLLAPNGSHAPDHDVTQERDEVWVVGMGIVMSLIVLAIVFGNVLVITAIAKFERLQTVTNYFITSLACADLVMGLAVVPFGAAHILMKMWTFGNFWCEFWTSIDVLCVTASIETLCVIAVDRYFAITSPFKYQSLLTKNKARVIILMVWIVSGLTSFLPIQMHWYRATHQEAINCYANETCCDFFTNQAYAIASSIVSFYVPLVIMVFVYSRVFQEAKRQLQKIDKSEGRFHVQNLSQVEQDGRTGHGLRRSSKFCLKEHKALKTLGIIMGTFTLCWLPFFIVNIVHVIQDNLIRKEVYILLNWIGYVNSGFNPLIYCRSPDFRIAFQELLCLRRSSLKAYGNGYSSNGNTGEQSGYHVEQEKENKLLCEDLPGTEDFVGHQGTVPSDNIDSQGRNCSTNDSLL
# A1 inh: caspase 3/7 activation in MEF A1-2A-BIM cells, primary screen, A1 inhibitor project, cell-based, luminescence, HTS; Caspase-Glo 3/7 luminescence, 3 h; percent of clofoctol response, vehicle zero; caspase activation, % (no concentration beside the values); 330,000 compounds, 0.066% hits; AID 2462, 2010;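 active = over half of replicate activation scores above 10%, or exactly half above 10 with the replicate mean above 10; inconclusive = replicate mean below 10 yet half the replicates above 10; inactive = over half of replicates below 10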;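 note: wells of about 30 µL received 50 nL stock; many hits fall short of the cut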
# Calb FLC: C. albicans growth inhibition with fluconazole, primary screen, CaCi-2 strain, Alamar Blue fluorescence | C. albicans CaCi-2 (fluconazole-resistant clinical isolate) + fluconazole, 48 h | growth inhibition, % (concentration not given with the values) | 300,000 compounds, 0.57% hits;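 active = most replicates above 75%; inconclusive = exactly half above 75%; inactive = most below 75%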;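 note: all wells also contain fluconazole at 8 µg/ml as a sub-toxic cotreatment; 0% = median of DMSO wells and 100% = median of geldanamycin control wells; wells of about 8 µL received 7.5 nL stock; the first replicate is given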
# LANA-H2A inh: blockers of LANA interaction with H2A/H2B – biochemical, FP readout, HTS, primary screen; cell-free LANA-H2A/H2B peptide, fluorescence polarization; 320,000 compounds, 0.6% hits; Protein LANA1 (Human herpesvirus 8 type P (isolate GK18)), Q9QR71; inhibition, % (no concentration beside the values); AID 2629, 2010; in the data active = inhibition mostly above about 10%, no sharp cut-off; inactive = mostly below about 6.7%;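 note: stock transfer was 7.5 nL into about 10 µL; 0% = median of vehicle wells and 100% = median of positive control wells; one replicate is shown; the record names a cut of 25% in any replicate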
# rRNA inh HTS OD600: second read-out of rRNA inh HTS, no call of its own (marks repeat the call); OD600 change, %; measured here: OD600 growth;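 optical density of the mix in the first replicate; 0 = DMSO median and -100 = no signal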
# rRNA inh HTS RFP: also measured in rRNA inh HTS; calls as there; RFP signal change, %; measured here: RFP humanized mutant strains;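 first replicate; 0 = DMSO median and -100 = no signal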
# The depositor's hits bear a star; ? = inconclusive; . = no result given. A portion of the library; the hit share may differ from the screen's.
SMILES,ALR inh,rRNA inh HTS,rRNA inh HTS OD600,rRNA inh HTS RFP,T cruzi inh,Beta apoptosis,Beta2AR agonist,A1 inh,Calb FLC,LANA-H2A inh
CCc1cc2c3c(c1)C(C)CC(C)(C)N3C(=O)C2=O (configuration not stated),1,.,.,.,8,-3,25,0.2,0,-1.2
COc1cccc(CNC(=O)CCC2CCCN(C(=O)C3=CC(=O)CC(C)(C)O3)C2)c1 (configuration not stated),-5,8,7,0.5,7,-5,4,0.0,3,-3.0
CC(C)CN(CC(C)C)CC(O)COc1ccccc1Br (configuration not stated),8,7,12,5.5,-12,3,-3,-0.5,0,-2.9
Cc1ccc(OCC(=O)NC(=S)Nc2ccc(Br)c(C)n2)cc1,-6,.,.,.,-24,-9,-6,0.0,5,2.3
CC1(C(=O)N2CCN(c3ccc([N+](=O)[O-])cc3)CC2)CC1(Cl)Cl (configuration not stated),13,-24,-26,-2.4,6,0,3,0.3,11,0.0
Cc1ccc2c(CN3CCCCC3C)cc(=O)oc2c1C (configuration not stated),.,-2,-12,-0.7,2,.,2,.,9,.
Cn1c(C2=C(O)CN(Cc3ccccc3)C2=N)nc2ccccc21,-4,14,12,3.7,-22,1,-2,0.5,-11,-0.2
O=C(NCC(=O)N(c1cccnc1)C(C(=O)NC1CCCC1)c1ccccc1F)c1ccco1 (configuration not stated),-2,.,.,.,12,-1,-3,0.3,17,-0.1
N#Cc1cc2c(=O)n3ccccc3nc2n(CCCN2CCOCC2)c1=O,-3,.,.,.,11,1,-1,-0.5,-1,-0.1
O=S(=O)(c1ccc(Cl)c(NC(=S)Nc2ccccc2N2CCOCC2)c1)N1CCOCC1,98*,11,3,3.4,4,9,-1,0.5,-18,3.1
CSc1ncccc1C(=O)Nc1ncc(C)s1,6,4,8,-2.2,-11,-6,7,-1.4,0,0.4
O=C(N/N=C/c1cccc(O)c1)c1ccc(COc2ccc3c(c2)CCC3)o1,-4,.,.,.,.,-6,3,0.0,-3,6.5
COC(=O)C1CCN(C(=O)CN2C(=O)NC(CCc3ccccc3)C2=O)CC1 (configuration not stated),99*,.,.,.,6,3,-2,-0.7,0,13
COc1ccc(C[C@@H]2CN3C(=NC[C@@H]3C)N2C[C@H](C)NC(=O)c2ccc(C)c(Br)c2)cc1,-3,-31,-60,-4.4,26,-5,2,0.4,6,-1.9
CCN(CC)S(=O)(=O)c1ccc(N2CCOCC2)c(NC(=O)c2cc(Cl)c3c(c2)OCO3)c1,-4,4,0,0.2,.,4,14,0.2,.,4.3
CCOc1cc(C(=O)Nc2cnccn2)cc(OCC)c1OCC,-1,.,.,.,-7,6,1,-0.2,15,-3.5
CC1=NN=C(c2ccccc2)C(c2c[nH]c3ccccc23)N1O (configuration not stated),-4,.,.,.,-19,-6,3,-0.9,-6,-4.8
CCOC(=O)c1c(C)n(C)c2ccc(OCC(O)Cn3nc(C)cc3C)cc12 (configuration not stated),-5,.,.,.,9,5,2,-0.1,?,1.5
C/C(=N/NS(=O)(=O)c1ccc(C)cc1)c1cccc(NC(=O)c2cccc(Cl)c2)c1,0,.,.,.,-4,5,7,-0.3,-7,-3.5
COC(=O)CC1=C(C(=O)OC)C(c2cc(OC)c(OC)cc2OC)C(C#N)=C(N)O1 (configuration not stated),-36,.,.,.,12,-8,6,-0.2,6,14*

# In the list so far, these have a Cl atom:
SMILES,ALR inh,rRNA inh HTS,rRNA inh HTS OD600,rRNA inh HTS RFP,T cruzi inh,Beta apoptosis,Beta2AR agonist,A1 inh,Calb FLC,LANA-H2A inh
CC1(C(=O)N2CCN(c3ccc([N+](=O)[O-])cc3)CC2)CC1(Cl)Cl (configuration not stated),13,-24,-26,-2.4,6,0,3,0.3,11,0.0
O=S(=O)(c1ccc(Cl)c(NC(=S)Nc2ccccc2N2CCOCC2)c1)N1CCOCC1,98*,11,3,3.4,4,9,-1,0.5,-18,3.1
CCN(CC)S(=O)(=O)c1ccc(N2CCOCC2)c(NC(=O)c2cc(Cl)c3c(c2)OCO3)c1,-4,4,0,0.2,.,4,14,0.2,.,4.3
C/C(=N/NS(=O)(=O)c1ccc(C)cc1)c1cccc(NC(=O)c2cccc(Cl)c2)c1,0,.,.,.,-4,5,7,-0.3,-7,-3.5

# The list continues.
SMILES,ALR inh,rRNA inh HTS,rRNA inh HTS OD600,rRNA inh HTS RFP,T cruzi inh,Beta apoptosis,Beta2AR agonist,A1 inh,Calb FLC,LANA-H2A inh
Cc1ccc(NC(=O)NC(=O)N(c2ccccc2)S(C)(=O)=O)cc1,-2,.,.,.,-4,-5,-4,0.3,12,5.2
CC(=O)c1cn(C2OC(CO)C3OC(C)(C)OC32)c(=O)n(C)c1=O (configuration not stated),4,9,16,1.9,-10,.,-6,0.8,-2,2.3
COc1ccc(-c2nn(-c3ccccc3)cc2/C=N/NC(=O)c2ccc3c(c2)OCO3)cc1,-7,.,.,.,14,17,.,-0.5,-2,1.0
COc1ccc(CN2CCN(c3ccccc3OC)CC2)cc1OC,23,2,1,-1.4,-9,1,6,1.2,-3,0.0
CCn1c(COc2cccc(C)c2)nnc1SCC(=O)NC1CCCC1,.,0,-3,-0.5,5,-5,-1,0.3,-5,7.9
Cc1cc(C)n(-c2ccc(C(=O)NCC(c3ccco3)N3CCCC3)cc2)n1 (configuration not stated),5,4,4,-1.6,.,5,5,-0.5,.,-1.4
O=C(COC(=O)C12CC3CC(CC(O)(C3)C1)C2)N1CCN(S(=O)(=O)c2ccc(Cl)cc2)CC1,-8,.,.,.,18,-10,-1,1.9,-5,-0.2
Cc1ccc(S(=O)(=O)N/N=C\c2cn(CC(N)=O)c3ccccc23)cc1,64,3,-7,0.3,-14,-3,-2,0.8,-5,2.8
COc1ccccc1OCC(=O)Nn1c(=S)[nH]c2ncccc2c1=O,91*,14,4,8.3,-1,0,0,0.5,-1,0.7
CCOc1ccc(CN(C)C(=O)c2cc(S(=O)(=O)N3CCCC3)ccc2C)cc1,-12,-6,-10,1.6,.,4,2,-0.6,.,2.7
O=C(CSc1n[nH]c(=O)[nH]c1=O)N/N=C/c1ccccc1,-7,.,.,.,-19,-1,1,0.0,2,-1.6
Cn1c(=O)c2c(ncn2CC(=O)N/N=C/C=C\c2ccccc2[N+](=O)[O-])n(C)c1=O,15,.,.,.,-15,0,.,-0.3,-4,-0.8
CCCC(=O)Nc1ccc(N2CCCCC2)cc1,82*,.,.,.,5,11,-2,0.3,-9,2.0
O=C(NCc1nc2ccccc2[nH]1)C1=C[C@@H](c2ccc(C(F)(F)F)cc2)C[C@@H](OCc2ccc(CO)cc2)O1,-4,.,.,.,46,1,16,0.2,8,0.8
O=C1NC(=O)C2(COC3(CCCC3)OC2)S1,-13,.,.,.,-1,-7,-2,-0.4,?,1.8
COc1cc(OC)cc(C(=O)N/N=C/c2ccc(OC)c(COc3ccc4ccccc4c3)c2)c1,1,.,.,.,8,12,2,-0.2,0,5.4
COc1ccc(Nc2nc(-c3cccc([N+](=O)[O-])c3)nc3ccccc23)c(OC)c1,-6,18,24,0.0,42,-2,-6,-0.6,27,1.8
COc1ccc(CN(C(=O)c2ccccc2OC)C2CCS(=O)(=O)C2)cc1 (configuration not stated),1,.,.,.,-2,-5,-8,0.3,2,-4.6
O=C(Nc1cccn(Cc2c(Cl)cccc2Cl)c1=O)c1c(Cl)cccc1Cl,-33,.,.,.,24,6,10,3.5,5,-0.2
CCCCCCCC(=O)Nc1cc(C(=O)NCc2ccc(C)cc2)ccc1N1CCC2(CC1)CC(c1cccc(Br)c1)=NO2,-3,1,0,-9.7,-12,5,0,0.3,7,-1.7

# As entered above.
# `CCc1cc2c3c(c1)C(C)CC(C)(C)N3C(=O)C2=O` (configuration not stated) @ Calb FLC: 0
# `CCOc1ccc(CN(C)C(=O)c2cc(S(=O)(=O)N3CCCC3)ccc2C)cc1` @ LANA-H2A inh: 2.7

# Next structures follow:
SMILES,ALR inh,rRNA inh HTS,rRNA inh HTS OD600,rRNA inh HTS RFP,T cruzi inh,Beta apoptosis,Beta2AR agonist,A1 inh,Calb FLC,LANA-H2A inh
CCn1c(SCC(=O)c2ccc(Cl)s2)nnc1-c1cccs1,11,.,.,.,9,2,0,-1.0,2,-3.7
COc1cc(C(=O)N2CCc3ccccc32)cc(OC)c1OC,-2,-5,-1,-3.2,-5,-1,1,0.5,1,-1.6
OCC[C@@H]1C[C@H](O)[C@@H](O)[C@]2(CCc3ccccc3O2)O1,-2,6,-3,0.5,-5,1,-8,0.9,6,2.3
Cc1ccc(S(=O)(=O)NCc2ccc3c(c2)cc(C)n3C)cc1,-3,1,7,12,64*,4,7,0.2,-2,3.8
O=C(CN1CCN(S(=O)(=O)c2ccccc2)CC1)Nc1ccccc1C(=O)NC1CC1,2,-2,-10,0.2,.,-3,10,-0.5,.,1.3
Cc1nnc(SCC(=O)N2CC(=O)Nc3ccccc32)n1Cc1ccccc1,0,.,.,.,7,-1,-9,2.1,-12,2.8
O=C(NCCNc1ccc([N+](=O)[O-])cc1C(F)(F)F)c1cccc(F)c1,-7,.,.,.,-3,-6,1,0.2,67,3.9
Cc1c(C(=O)N2CC[C@@H](N3CCC(O)CC3)[C@H](O)C2)[nH]c2ccc(Cl)cc12,1,1,-1,1.5,-10,1,-1,0.0,-5,-2.5
CC(C)NS(=O)(=O)c1ccc(CCC(=O)NCc2ccc3c(c2)OCO3)cc1,.,.,.,.,11,-3,-1,-1.0,-8,-4.9
O=C(NCCO)/C(=C\c1ccco1)NC(=O)c1cccs1,-4,10,10,4.6,12,-4,-2,0.1,2,7.4
Cc1cc(NC(=O)COC(=O)C2CC(=O)N(c3ccc(C)c(Cl)c3)C2)no1 (configuration not stated),6,1,-1,-0.3,-12,-6,1,0.1,0,0.0
COc1ccc(NC(=O)c2oc3ccccc3c2NC(=O)c2ccco2)cc1,6,-13,7,5.7,15,27,7,0.4,-1,-5.3
